High-throughput results as filed in PubChem.
TRPML1 inh: qHTS for Inhibitors of the Human Mucolipin Transient Receptor Potential 1 (TRPML1). Mucolipin-1 (Homo sapiens), Q9GZU1. TRPML1-inducible cells, Ca2+ dye fluorescence, FDSS; active compounds read low; inhibition of EC80 agonist-evoked calcium signal. activity change, negative = inhibition, % (no concentration beside the values). 390,000 compounds, 0.02% hits; in the data active means activity change below about -50%; inconclusive means about -30% to -50%; inactive means above about -30%;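 further: stimulus is agonist 54-4 at its EC80 concentration; on the % scale 0 is the no-effect control and ±100 the full control effect; compound concentration not given in the record; the text of the record puts the active cut at -80%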
Target sequence (Q9GZU1 whole entry, looked up): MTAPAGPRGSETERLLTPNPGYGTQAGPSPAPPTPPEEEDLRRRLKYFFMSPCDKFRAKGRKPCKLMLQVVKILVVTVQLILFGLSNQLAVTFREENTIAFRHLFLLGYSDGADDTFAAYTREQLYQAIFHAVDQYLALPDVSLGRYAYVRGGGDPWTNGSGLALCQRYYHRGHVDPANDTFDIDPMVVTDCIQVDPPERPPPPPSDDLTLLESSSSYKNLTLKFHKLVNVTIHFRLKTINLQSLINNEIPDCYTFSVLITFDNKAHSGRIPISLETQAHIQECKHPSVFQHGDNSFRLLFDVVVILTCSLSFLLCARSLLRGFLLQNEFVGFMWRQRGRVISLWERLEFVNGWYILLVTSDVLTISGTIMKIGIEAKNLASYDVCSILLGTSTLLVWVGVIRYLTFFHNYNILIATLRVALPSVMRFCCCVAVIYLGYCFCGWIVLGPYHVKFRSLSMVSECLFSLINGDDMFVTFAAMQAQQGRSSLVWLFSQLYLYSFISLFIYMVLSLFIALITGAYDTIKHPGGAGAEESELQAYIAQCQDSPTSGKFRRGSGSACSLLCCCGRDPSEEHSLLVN
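TRPML1-DL cells, Tet-induced overnight (~16 h, 37 °C) at 1,500 cells/well, were loaded with Ca8 no-wash dye plus quencher for 45-90 min at room temperature. Compounds were pinned during FDSS kinetic reading; agonist 54-4 at EC80 (4 uM final) then added.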
PINK1 modulator: A Quantitative High throughput Screen to Identify Chemical Modulators of PINK1 Expression. Potency, µM (doses to about 76.6 µM), without a hit: at the highest dose activation (PINK1 increase), most hits filed as activators. 410,000 compounds, 0.2% hits. PINK1 immunofluorescence, high-content cytometry, 24 h. AID 624263, 2012; active = well fitted activation curve with a large enough effect; inconclusive = small, poorly fitted or top-dose-only effect; inactive = flat fitted curve, though single readings scatter; cell line not stated here;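 further: potency means the concentration at half of the fitted maximal effect; % of control where 0% means no effect; nearly all actives have a fitted effect of over 65% in size; a mitochondrial uncoupler was the plate control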
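Stable cell line, 250 cells/well, 12 h attachment; compounds pinned at 5 concentrations, 24 h; CCCP control. Fixed with nuclear dye, primary antibodies 12 h at 10 degrees C, secondary plus cell stain; laser-scanning cytometer read.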
Six1-Eya2 inh: qHTS Assay for Inhibitors of the Six1/Eya2 Interaction. 360,000 compounds, 0.56% hits. AID 651725, 2012. Homeobox protein SIX1 (Homo sapiens) + Protein phosphatase EYA2 (Homo sapiens), …. activity change, % (test concentration not listed). AlphaScreen GST-Six1/His-Eya2 binding, biochemical; active compounds read low; control for the full effect not named in the record; in the data active = activity change below about -65%; inconclusive = about -30% to -65%; inactive = above about -30%; further: on the % scale 0 is the no-effect control and ±100 the full control effect
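Six1/Eya2 binding was read as AlphaScreen signal after compounds were pinned into GST-Six1 plus His-tagged Eya2 (5X stock 250/500 nM) in pH 8.0 Tris/NaCl/TCEP buffer, beads added, then incubated 1 h, 37 C, dark.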
D2 agonist: Beta-Arrestin HTS for Positive Allosteric Modulators of the Human D2 Dopamine Receptor: Agonists | activation, % (no concentration beside the values) | 360,000 compounds, 0.084% hits | D(2) dopamine receptor (Homo sapiens), P14416 | DiscoveRx PathHunter D2 beta-arrestin, luminescence, 90 min; 100% = 57 uM dopamine signal; in the data active = activation above about 40%; inconclusive = about 15% to 40%; inactive = below about 15%; further: compound concentration not given in the record; the text of the record calls up to 30% inactive
Target sequence (P14416 whole entry, looked up): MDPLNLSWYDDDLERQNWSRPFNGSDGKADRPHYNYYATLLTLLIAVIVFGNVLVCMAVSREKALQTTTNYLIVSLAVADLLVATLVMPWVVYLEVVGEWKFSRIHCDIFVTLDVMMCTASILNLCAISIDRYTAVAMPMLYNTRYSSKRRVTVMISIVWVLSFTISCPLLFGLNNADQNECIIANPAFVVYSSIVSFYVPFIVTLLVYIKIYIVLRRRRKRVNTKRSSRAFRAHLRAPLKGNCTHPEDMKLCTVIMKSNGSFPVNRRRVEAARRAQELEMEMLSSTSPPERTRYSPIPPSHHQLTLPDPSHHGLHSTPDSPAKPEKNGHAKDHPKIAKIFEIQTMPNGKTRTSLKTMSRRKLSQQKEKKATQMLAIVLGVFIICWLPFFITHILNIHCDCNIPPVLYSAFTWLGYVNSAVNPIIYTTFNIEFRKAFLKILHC
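DiscoveRx PathHunter D2 beta-arrestin cells (2,100/well) attached overnight, then compound-stimulated 90 min at 37 C in HBSS/10 mM HEPES/0.1% Tween-20 buffer; beta-galactosidase complementation read by luminescence after 1 h at ambient temperature. Dopamine 57 uM final (EC100) as control.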
TRPML1 agonist: qHTS for Agonists of the Human Mucolipin Transient Receptor Potential 1 (TRPML1); AID 624414, 2012; TRPML1-expressing cells, Ca2+ dye fluorescence, FDSS; host cell line not named in the record; reference of the full effect not given here; activation, % (test concentration not listed); Mucolipin-1 (Homo sapiens), Q9GZU1; 410,000 compounds, 0.12% hits; in the data active = activation above about 50%; inconclusive = about 30% to 50%; inactive = below about 30%; further: 0% is about no effect; the text of the record puts the active cut at 80%
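TRPML1-DL cells, Tet-induced overnight (~16 h, 37 degrees C), loaded 45-90 min at room temperature with Ca8 no-wash calcium dye plus quencher. FDSS fluorescence: 10 s baseline, compound pin-transfer, 110 s agonist read, then EC80 54-4 (4uM final) and 110 s antagonist read.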
D2 potentiator: Beta-Arrestin HTS for Positive Allosteric Modulators of the Human D2 Dopamine Receptor: Potentiators | DiscoveRx D2 beta-arrestin cells, luminescence, 90 min; 100% = 57 uM dopamine signal | potentiation, % (test concentration not listed) | 360,000 compounds, 0.23% hits | AID 624464, 2012; active = potentiation of 50% or more; inconclusive = 30% to 50%; inactive = 30% or less;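 further: compound concentration not given in the record; tested on top of an EC20 dose of dopamine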
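D2 cells co-treated with compound plus 50 nM dopamine (EC20) for 90 min at 37 deg C to detect potentiation. Beta-arrestin recruitment was read as enzyme-fragment luminescence after 1 h at ambient temperature. Full response was set by 57 uM dopamine.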
Active calls of the source: *; ? = inconclusive; · = no result given; [ ] = remark or other dose. Not a hit list. About 1% of those tested had a hit in this group.

SMILES | TRPML1 inh | PINK1 modulator | Six1-Eya2 inh | D2 agonist | TRPML1 agonist | D2 potentiator
Cc1ccccc1-c1nc(S(=O)(=O)c2ccc(Br)cc2)c(NCc2cccnc2)o1 | 4 | ? | -9 | -2.8 | 0.8 | -13
O=C(N=c1ccn(-c2nc3ccccc3nc2NS(=O)(=O)c2ccc(Cl)cc2)cc1)c1cccs1 | · | ? | -1 | -11 | · | -4
Cc1[nH]nc(NNC(=O)c2ccccc2)c1[N+](=O)[O-] | -18 | 1.0% | 5 | 1.2 | -0.9 | 1
COc1ccc(OC)c(NC(=O)CSc2nc3[nH]c(=O)[nH]c(=O)c3s2)c1 | -17 | 0.5% | -12 | -3.6 | -0.5 | -5
O=C(NC(=S)Nc1ccc(N2CCOCC2)cc1)c1ccccc1 | 14 | -0.1% | -7 | -2.3 | 2.3 | 2
CC(NC(=O)C(=O)N1CCCCC1)C(c1cccs1)N1CCN(c2ccccc2)CC1 (stereo not given) | -20 | 1.2% | -1 | -0.5 | -0.6 | -11
NC(=O)C1(C(N)=O)OC1c1ccc(Cl)c(Cl)c1 (stereo not given) | 19 | -1.1% | 6 | -1.4 | -0.6 | -11
COc1ccc(CCNC(=O)CC2SC(N)=NC2=O)cc1OC (stereo not given) | -18 | 0.2% | -4 | -5.5 | -0.6 | -2
C#CC(CC)(CC)NC(=O)c1cc(S(=O)(=O)N2CCCCC2)ccc1N1CCOCC1 | 12 | 0.5% | -1 | -0.8 | -0.2 | 1
CCOC(=O)NN=C1CCC(c2ccccc2)CC1 (stereo not given) | -1 | 0.1% | 5 | -3.7 | 0.0 | -4
CCO[C@@H]1OC(C(=O)Nc2ccccc2)=C[C@H](C)[C@H]1CCCO | 3 | 0.0% | -1 | -3.0 | -0.7 | -6
O=C(CCc1nc2ccccc2s1)OCC(=O)c1ccc[nH]1 | 10 | 2.6% | 3 | -0.7 | 0.8 | -6
Cc1ccc(C(=O)CSc2nnc(COc3ccccc3)o2)cc1 | 11 | -0.1% | 42 | -6.3 | 2.8 | -5
Cc1nc(-c2ccc(S(=O)(=O)NCc3ccccn3)s2)cs1 | 2 | -0.5% | -2 | -5.4 | -1.2 | -19
C[C@H](CO)N1C[C@H](C)[C@@H](CN(C)C(=O)Nc2ccc(F)cc2)Oc2cc(Br)ccc2S1(=O)=O | -7 | -1.0% | 7 | -3.6 | 0.6 | -10
COc1ccc(-c2nc(CS(=O)(=O)CC(=O)NCc3cccc(Br)c3)c(C)o2)cc1 | 51 | 8.1% | -3 | -0.6 | 2.4 | -1
O=C(Nc1ccc2nc3n(c(=O)c2c1)CCCC3)c1cccc([N+](=O)[O-])c1 | -1 | 12% | -66* | -0.1 | -0.6 | 16
COc1cc(C(=O)OCC(=O)Nc2c(F)cccc2F)cc(OC)c1C | -7 | -0.6% | 8 | -4.6 | -0.6 | -2
Cc1c(CC(=O)NCc2ccccc2Cl)c(=O)oc2cc(O)ccc12 | -20 | 0.0% | · | · | 2.7 | ·
CC(C)N(Cc1nccn1C)C(=O)c1cc(COc2ccc3ncccc3c2)on1 | 23 | 3.6% | 10 | -1.8 | 0.3 | -1
CCOC(=O)CSc1nnc(Cc2ccccc2)n1-c1cccc(Cl)c1 | 9 | 1.0% | 4 | -5.2 | 2.0 | 0
NC(=O)[C@@H]1CCCN1Cc1nc(-c2ccccc2)no1 | 2 | -0.6% | 7 | -0.4 | 0.2 | -3
COc1cc(S(=O)(=O)N2CCN(C(=O)C3CC3)CC2)ccc1NC(C)=O | -7 | -0.5% | -3 | -1.8 | -0.4 | -4
CN(C)S(=O)(=O)c1ccc(NC(=O)c2cc(-c3cccs3)nc3ccccc23)cc1 | 0 | -1.3% | -2 | -1.2 | 0.4 | 3
O=C(Nc1ccccc1)c1cn(-c2ccccc2)nc1-c1ccccc1 | -16 | 1.6% | · | · | 1.0 | ·
Clc1cccc(Cl)c1CSc1nnc(-c2sccc2-n2cccc2)o1 | -21 | -3.1% | -5 | -2.4 | 1.4 | 11
Cc1cccnc1NC(=O)CCNC(=O)c1ccc(Br)cc1 | 18 | 3.3% | -5 | -1.6 | 0.2 | -13
Cc1ccc(C)c(/C(O)=C2\C(=O)C(=O)N(CCCn3ccnc3)C2c2ccncc2)c1 (stereo not given) | -7 | -2.6% | 2 | 1.3 | 0.1 | 2
COc1ccccc1C(=O)Nc1ccnn1C1CCN(CC2CC=CCC2)CC1 (stereo not given) | -7 | 0.4% | 4 | -3.4 | 0.2 | -53
COC(=O)c1ccccc1NC(=O)CSc1nc2ccccc2nc1Cc1ccc(F)cc1 | 7 | 1.4% | · | · | 0.2 | ·

Part of the list above in order of molar mass, descending:
SMILES | TRPML1 inh | PINK1 modulator | Six1-Eya2 inh | D2 agonist | TRPML1 agonist | D2 potentiator
Cc1ccc(C)c(/C(O)=C2\C(=O)C(=O)N(CCCn3ccnc3)C2c2ccncc2)c1 (stereo not given) | -7 | -2.6% | 2 | 1.3 | 0.1 | 2
Clc1cccc(Cl)c1CSc1nnc(-c2sccc2-n2cccc2)o1 | -21 | -3.1% | -5 | -2.4 | 1.4 | 11
COc1ccccc1C(=O)Nc1ccnn1C1CCN(CC2CC=CCC2)CC1 (stereo not given) | -7 | 0.4% | 4 | -3.4 | 0.2 | -53

The results go on:
SMILES | TRPML1 inh | PINK1 modulator | Six1-Eya2 inh | D2 agonist | TRPML1 agonist | D2 potentiator
CCOC(=O)CCCNC(=O)CCNC(=O)c1ccc(OCCC(C)C)cc1 | 10 | 2.2% | 2 | -1.8 | -0.5 | -1
CCOC(=O)c1c(C)[nH]c(C)c1S(=O)(=O)N1CCC(c2ccccc2)C1 (stereo not given) | 6 | 2.1% | -11 | 1.0 | 0.1 | -8
Cc1ccc(N(CC(=O)N2CCn3c2nc2ccccc23)S(=O)(=O)c2c(C)n[nH]c2C)cc1 | -23 | 2.1% | -3 | 1.1 | 1.5 | 8
C/C(CCc1oc2ccccc2c1-c1ccc(C)o1)=N/O | -4 | 1.9% | -15 | -6.1 | -0.1 | -41
COc1cccc(/C=N\NC(=O)C2=NNC(=O)C2C)c1O (stereo not given) | -3 | 10% | -91* | -0.8 | 0.4 | -9
COc1cccc(NC(=O)CSc2nc3ccccc3c(=O)n2CCCC(=O)N2CCCC2)c1 | 15 | 3.7% | -5 | 4.7 | 2.2 | -2
COCOCCn1cc(CN2CCS(=O)(=O)N(Cc3ccc(-c4ccc(F)cc4)cc3)C(CC(C)C)C2=O)nn1 (stereo not given) | 15 | 4.4% | 21 | -2.9 | 0.2 | 0
Cc1c(C(N)=O)cc([N+](=O)[O-])cc1[N+](=O)[O-] | -9 | -0.1% | 19 | 0.7 | 0.1 | -19
CCC1NC(=O)c2cc(S(N)(=O)=O)c(Cl)cc2N1 (stereo not given) | -24 | 0.2% | 2 | 4.9 | 1.3 | -3
CCc1cc(=O)oc2c3c(cc(OCC(=O)NCCCn4ccnc4)c12)OC(C)(C)CC3 | · | 0.5% | -3 | -4.0 | · | -16
COCC(=O)NCc1nc2cccnc2n1Cc1ccc(F)cc1 | -6 | -1.1% | · | · | -0.7 | ·
Cc1ccc(C(=O)N2CCCC(N(C)Cc3ccccc3)C2)s1 (stereo not given) | -3 | -2.0% | -7 | -0.6 | 0.9 | -37
Cc1c(C(=O)Nc2cccc(S(=O)(=O)N3CCCC3)c2)oc2ccccc12 | 64 | 3.6% | -7 | 4.7 | 1.2 | -11
O=C(c1ccc(Cl)cc1)N(Cc1ccco1)Cc1ccco1 | 0 | 0.8% | · | · | 2.6 | ·
CC(C)C(C)(C#N)NC(=O)CSc1nc2scc(-c3ccccc3)c2c(=O)[nH]1 (stereo not given) | 1 | -0.5% | 0 | -6.0 | 0.4 | -6
Cc1ccc(C)n1CCN1CCN(C(=O)CC#N)CC1 | -4 | 2.1% | 27 | -3.1 | 1.1 | -21
CC(=O)NCc1ccc(-c2csc(N)n2)s1 | 6 | -2.2% | 0 | 0.3 | -0.4 | 1
COc1ccc(OC)c(C(=O)CSc2nnnn2C)c1 | 25 | 46%[38.3 µM] | -3 | -1.5 | -0.7 | 7
Cc1ccc(C)c(CS(=O)(=O)c2cn(CC(=O)N(C(C)C)C(C)C)c3ccccc23)c1 | 32 | 2.5% | · | · | 2.5 | ·
COc1ccc(CCNc2ncnc3sc(C)cc23)cc1OC | 3 | 0.8% | -7 | 3.2 | -0.3 | 6
COc1cccc(C2CC(c3ccccc3)n3ncnc3N2)c1 (stereo not given) | -8 | 1.8% | 2 | -0.6 | 0.8 | -2
Cn1nc(C(=O)NCc2cccc(F)c2)cc1C(=O)NCc1cccc(F)c1 | 8 | 0.5% | -6 | -0.4 | -0.9 | -7
CN1CCN(C(=O)c2ccccc2NC(=O)c2ccc(C(C)(C)C)cc2)CC1 | 26 | -0.9% | 14 | -0.1 | 0.7 | -21
CCCCNC(=O)c1cc(-c2cccnc2)nc2ccc(S(=O)(=O)NCCCC)cc12 | 6 | 1.8% | · | · | -0.6 | ·
O=C(Cn1cnc2ccccc21)OCC(=O)N1CCc2ccccc2C1 | 33 | -1.9% | 10 | 2.8 | -0.1 | -3
Cc1ccc(F)c(S(=O)(=O)NC(=O)C2(C)CCN2C(=O)c2ccc(C(F)(F)F)nc2C)c1 (stereo not given) | · | 0.4% | 5 | 1.0 | -0.2 | 2
CC1CCCN(c2nc3c(-c4ccc(Cl)cc4)nnn3c3ccccc23)C1 (stereo not given) | -13 | -0.3% | · | · | -0.1 | ·
Cc1ccc(S(=O)(=O)CCC(=O)N2CCN(c3ccc([N+](=O)[O-])cc3)CC2)cc1 | 4 | -2.0% | 4 | -3.5 | -1.1 | -9
O=C(NN=C1CCCC1)c1ccc(Br)cc1 | -6 | -0.7% | -9 | -4.0 | 0.2 | -20
CC[C@H](C)[C@@H](CO)NC(=O)[C@H]1O[C@@H](n2ccc(N)nc2=O)[C@H](O)[C@@H]1O | · | 0.3% | 0 | -1.8 | -0.3 | -2
O=C(N1CCOCC1)C12CC3CC(C1)CC(c1ccccc1)(C3)C2 | -2 | · | 1 | 4.0 | -0.4 | 0
CCOc1ccc(CCNC(=O)COC(=O)COc2ccc(Br)cc2)cc1OCC | 23 | 0.6% | -3 | -4.5 | 0.6 | -5
Cc1cc(Cl)c(C)c(S(=O)(=O)N2CCN(C(=O)C3CCCO3)CC2)c1Cl (stereo not given) | 1 | -1.4% | 0 | -0.8 | -0.4 | -4
